H5N1 antiviral: MDCK cell protection from H5N1 avian flu | actives 0.07% (n = 96,000) | inhibition, % at 50 µM | cytopathic effect, luminescence, 72 h; stronger effect = higher value; no value below 0 was filed and about half of the inactive calls have no number; reference of the scale not given here; in the data active means inhibition above about 25%
The depositor's hits bear a star; i = inactive. This is a subset (hit frequency here may not be typical).

SMILES | H5N1 antiviral
CCCCCOC(=O)Cn1c(N2CCCCCC2)nc2c1c(=O)[nH]c(=O)n2C | i
Cc1cccc(Nc2ncccc2C(=O)NCc2cccs2)c1C | i
CCOc1ccccc1NC(=S)Nc1ccccc1F | i
COc1cc(C2C3C(C)N(C)C(=O)N(C)C3N(C)C(=O)N2C)ccc1O (configuration not stated) | 0.8
CCC(C)NC(=O)c1ccccc1NC(=O)Nc1ccccc1 (configuration not stated) | i
O=C(N1CCOCC1)N1CCCC(c2nc(-c3cccs3)no2)C1 (configuration not stated) | 3.1
OCCn1c(CSc2nc3ccccc3n2CCO)nc2ccccc21 | i
Nc1nc2sc3c(c2c(=O)s1)CCCC3 | 1.8
Cc1ccc(C(CC(N)=O)c2ccco2)cc1 (configuration not stated) | i
CCC(Sc1nnc2c3ccccc3n(CC)c2n1)C(=O)Nc1sc2c(c1C#N)CCCC2 (configuration not stated) | i
N#Cc1ccc(CN2CCN(C(=O)c3ccccc3)CC2)c(Cl)c1 | 0.9
CCOC(=O)Cc1csc(NC(=O)c2c(-c3c(F)cccc3Cl)noc2C)n1 | i
O=C1C2CC=CCC2C(=O)N1c1n[nH]c(-c2ccccc2)n1 (configuration not stated) | 0.2
COc1ccc(NCc2n[nH]c(=O)c3ccccc23)cc1 | i
Cc1ccccc1NC(=O)c1cc(S(=O)(=O)c2ccccc2)ccc1Cl | i
COc1ccc(-n2nnnc2S(=O)(=O)Cc2ccc(C(=O)O)cc2)cc1 | i
NC(=O)c1ccccc1NC(=O)/C=C/c1ccc(Cl)cc1 | i
NC(=O)CNC(=O)[C@@H]1CC2(CC(c3cccc([N+](=O)[O-])c3)=NO2)CN1C(=O)c1ccccc1 (some centres not stated) | i
Cc1cc2ncn(C(=O)N3CCCCC3)c2cc1C | 2.1
Clc1ccc(C(c2nnnn2CCc2ccccc2)N2CCSCC2)cc1 (configuration not stated) | 0.5

Reprinted at random: 5 compounds from above.
SMILES | H5N1 antiviral
COc1ccc(NCc2n[nH]c(=O)c3ccccc23)cc1 | i
Cc1ccccc1NC(=O)c1cc(S(=O)(=O)c2ccccc2)ccc1Cl | i
N#Cc1ccc(CN2CCN(C(=O)c3ccccc3)CC2)c(Cl)c1 | 0.9
CCOC(=O)Cc1csc(NC(=O)c2c(-c3c(F)cccc3Cl)noc2C)n1 | i
O=C1C2CC=CCC2C(=O)N1c1n[nH]c(-c2ccccc2)n1 (configuration not stated) | 0.2

Going on with the list.
SMILES | H5N1 antiviral
CC1CCN(C(=O)CN(c2ccc3c(c2)OCO3)S(C)(=O)=O)CC1 | 0.6
CCOC(=O)c1sc(=S)n(-c2ccc(Cl)cc2)c1SC | 1.6
O=C1C2C(C(=O)N1/N=C/c1cc(Br)cc([N+](=O)[O-])c1O)C1C=CC2C12CC2 (configuration not stated) | 1.6
COc1cc2c(cc1OC)C(c1ccccc1)N(C(=O)CCl)CC2 (configuration not stated) | i
COc1ccc(C2NC(=O)NC3=C2CCc2ccccc23)cc1 (configuration not stated) | 66*
CCCCn1c(=O)n(CC(=O)Nc2ccc(OC)c(Cl)c2)c(=O)c2c1nc(CO)n2CCC | i
CC(=O)Nc1ccc(S(=O)(=O)NCCc2cc3c(C)ccc(C)c3[nH]c2=O)cc1 | 2.8
CCOC(=O)N1CCN(C2=CC(=O)OC23CCCCC3)CC1 | 0.2
Cc1cccc(C)c1NS(=O)(=O)c1c(C)[nH]c(=O)[nH]c1=O | i
COCCCNC(=O)CS(=O)Cc1nc(-c2cccc(OC)c2)oc1C (configuration not stated) | i
CCc1c(C(=O)Nc2ccc(OC)c(Cl)c2)[nH]c(C)c1C(C)=O | i
O=C(CCCC(=O)N1CCN(c2ccccc2F)CC1)N1CCN(c2ccccc2F)CC1 | 0.9
CCOC(=O)c1nn(-c2ccccc2)c(-c2ccccc2)c1C(=O)c1ccccc1 | 0.1
O=C(NCCCN1CCOCC1)c1ccccc1 | i
Oc1c(CN2CCCCC2)cc(COCc2ccccc2)c2cccnc12 | i
Cc1ccccc1OCC(=O)Nc1ccccc1N1CCCCC1 | i
CCN=C(Nc1ccc(Cl)cc1)c1cccnc1 | 1.6
O=C1COc2ccc(C(=O)COC(=O)Cn3cnc4ccccc43)cc2N1 | i
Cc1coc(NC(=O)CSc2nc(-c3ccc(Cl)cc3)cc(C(F)(F)F)c2C#N)n1 | i
CCOc1cc(S(=O)(=O)NCCc2ccc(OC)c(OC)c2)c(OCC)cc1-n1cnnn1 | 0.5
CC(=O)c1c(CC(=O)O)[nH]n(-c2nc3ccccc3s2)c1=O | i
O=S(=O)(c1ccc(Cl)c(F)c1)N1CCC(c2nc(-c3ccncc3)no2)CC1 | 0.3
COc1ccc(CN2C(=O)CCC2(C)C(=O)NCc2cccnc2)c(OC)c1 (configuration not stated) | 0.3
Cc1nc(NCc2ccccn2)c2ccccc2n1 | i
CC1(C)NC(=O)N(CC(O)COc2cccc(F)c2)C1=O (configuration not stated) | 0.1
CN(C)CCCOC(=O)Cc1ccc(Cl)cc1 | i
CC(C)OC(=O)CSc1nnc(-c2cnccn2)n1-c1ccccc1 | 0.9
COCCCn1c2nc3ccccc3nc2c2c(=O)n(-c3ccccc3OC)c(C)nc21 | i
Cc1nc2c(c(-c3ccccc3)c1C#N)C(=O)c1ccccc1-2 | i
Cc1ccc2oc(=O)c3cnn(CC(=O)Nc4ccccc4N4CCN(C)CC4)c3c2c1 | 12
CCn1cc([N+](=O)[O-])c(C(=O)Nc2nc(-c3ccc(C)c(C)c3)c(C)s2)n1 | i
CC(C)(C)NC(=O)C(c1ccccc1F)N(Cc1ccco1)C(=O)c1csnn1 (configuration not stated) | i
CCCOc1ccccc1C(=O)N(Cc1ccco1)C1CCS(=O)(=O)C1 (configuration not stated) | 1.1
CCOC(=O)C1=C(C)NC(SCC(=O)OC)=C(C#N)C1c1ccc(C(=O)OC)cc1 (configuration not stated) | 1.6
CCOC(=O)/C(C#N)=c1/s/c(=C2\C=Cc3ccccc3N2CC)c(=O)n1CC | 0.8
Cc1ccc(NC(=O)CN(C)S(=O)(=O)c2cccs2)cc1F | 0.7
O=C(Nc1cc(C(F)(F)F)ccc1N1CCOCC1)c1ccco1 | i
COc1cc(C2=NOC(C(=O)Nc3ccc(C(C)=O)cc3)C2)cc(OC)c1OC (configuration not stated) | 1.5
Nc1nc(N)c2sc3nc4c(cc3c2n1)CCC4 | 0.4
Fc1ccc(C(c2nnnn2C2CCCC2)N2CCc3ccccc32)cc1 (configuration not stated) | 0.8
Cc1ccc(-n2nnnc2SC(C)C(N)=O)c(C)c1 (configuration not stated) | i
COc1cc2cc(C(c3nnnn3C(C)(C)C)N3CCC(C)CC3)c(=O)[nH]c2cc1OC (configuration not stated) | i
Clc1ccccc1Cn1nnc2c(N3CCOCC3)nc(C3CC3)nc21 | 2.0
COc1ccc2c(c1)C(=O)N(c1ccccc1OC)C(=O)C2 | 0.1
COC(=O)COc1ccc(S(=O)(=O)Nc2ccc(NC(C)=O)cc2)cc1 | i
O=C(NCCCN1CCOCC1)c1cccs1 | 0.8
CC(C)CNC(=S)NNC(=O)c1ccc(OC(F)F)cc1 | i
COc1ccc(C2NC(C(=O)O)Cc3c2[nH]c2ccccc32)cc1OC (configuration not stated) | 0.5
Cn1c(NC(=O)c2ccccc2Br)cc(=O)n(C)c1=O | 0.3
COc1ccc(C2/C(=C(/O)c3ccccc3)C(=O)C(=O)N2C)cc1 (configuration not stated) | i

Continuation.
SMILES | H5N1 antiviral
CC(=O)Nc1ccc(S(=O)(=O)Nc2c(C)n(C)n(-c3ccccc3)c2=O)cc1 | 0.3
COc1cccc(C(=O)Cn2c(N3CCCCC3)nc3c2c(=O)n(C)c(=O)n3C)c1 | i
COc1ccc(N2C(=O)CCC(C(=O)N(C)C3CCCCC3)C2c2ccc(OC)c(OC)c2)cc1 (configuration not stated) | 1.1
Clc1ccc(-c2nnc3n2CCCC3)cc1Cl | i
COc1ccc(-n2c(SCC(=O)Nc3nccs3)nc3c(c2=O)SCC3)cc1 | i
O=S(=O)(c1cccc(C(F)(F)F)c1)N1CCC(c2cc(-c3cccc4ccccc34)n[nH]2)CC1 | 2.4
Cc1nn2c(c1-c1ccccc1)N=C(c1ccco1)CC2c1ccccc1 (configuration not stated) | 0.1
CCOC(=O)c1cnc(SCC(=O)Nc2ccc(N3CCOCC3)c(Cl)c2)nc1N | i
NC(=O)c1ccccc1N/C=C/C(=O)c1ccc(F)cc1 | 0.1
N#Cc1cc2c(nc1SCC(=O)O)CCCC2 | i
Cc1ccc(NC(=O)C2C(c3ccccc3)C=CC(c3ccccc3)C2C(=O)O)cc1 (configuration not stated) | 0.1
CCOc1ccc(S(=O)(=O)Nc2ccccc2SC)cc1 | 1.6
Cc1nnc(-c2cnn(-c3ccccc3)c2N)n1Cc1ccc(F)cc1 | i
Cn1nnnc1SCc1nc2ccccc2s1 | 0.1
CC(C)(C)n1nnnc1C(c1ccncc1)N1CCCCCC1 (configuration not stated) | 1.1
Cc1nnc(SCC(=O)N(C)Cc2ccccc2)[nH]c1=O | i
Cc1cc(C)cc(NC(=O)c2ccc(CSc3nnnn3C)cc2)c1 | 1.5
O=C(CCSc1ccc(Cl)c(Cl)c1)NC12CC3CC(CC(C3)C1)C2 | 5.8
CS(=O)(=O)N(CC(=O)Nc1ccccc1C(=O)NCCc1ccccc1)c1ccc2c(c1)OCCO2 | i
CN(C)c1nc2c(c(N)nn2-c2ccc(Cl)cc2)c(=O)o1 | i

Some values from the results shown.
Result for Cc1ccc(NC(=O)C2C(c3ccccc3)C=CC(c3ccccc3)C2C(=O)O)cc1 (configuration not stated) in H5N1 antiviral: 0.1
Result for Cc1cc(C)cc(NC(=O)c2ccc(CSc3nnnn3C)cc2)c1 in H5N1 antiviral: 1.5
Result for CCOc1ccc(S(=O)(=O)Nc2ccccc2SC)cc1 in H5N1 antiviral: 1.6

(further entries)
SMILES | H5N1 antiviral
O=C(O)CCc1ccc(S(=O)(=O)NCCc2ccccc2)cc1 | 0.3
COc1cc(OC)cc(C(=O)NCC2CCCO2)c1 (configuration not stated) | 0.9
O=C(CN1C(=O)CNC1=O)Nc1cccc(C(F)(F)F)c1 | 0.6
CCc1nc(N)c(C#N)c(-c2ccc(OC)c(OC)c2)c1C | i
Cc1ccc(C)c2[nH]c(=O)c(CN(Cc3ccc4c(c3)OCO4)Cc3nnnn3Cc3ccco3)cc12 | 0.8
Cc1nc2nc(-c3cccnc3)nn2c(C)c1Cl | 2.4
O=C(NCCc1ccccc1)C1CC(=O)N(C2CCCCCC2)C1 (configuration not stated) | 0.0
Cc1ccc(Cn2c(=O)n(Cc3ccco3)c(=O)c3ccccc32)cc1 | i
O=C1CCCC2=C1C(c1ccccc1)CC(=O)N2c1ccccc1 (configuration not stated) | 1.3
O=C(Nc1cccc(F)c1)c1c(F)c(F)c(F)c(F)c1F | 0.4
Cc1ccc(N2C(=O)C(Cc3ccccc3)NC2=S)cc1 (configuration not stated) | i
C=CCn1c(SCC(=O)N2CCc3ccccc3C2)nc2sc(C)cc2c1=O | 1.6
NNc1nc(Nc2ccccc2)nc(N2CCCCC2)n1 | 1.5
O=C(CCN1CCc2ccccc2CC1)c1ccc2c(c1)OCCO2 | 2.5
COC(=O)C1=C(NC(=O)c2ccc(C)cc2)CCS1 | 0.4
CC(C)Oc1cc2oc(=O)c3c(c2cc1Cl)CCC3 | 1.7
COc1ccc(/C=N/N=C2/NC(=O)C(c3ccccc3)(c3ccccc3)S2)cc1 | i
COc1ccc(C(=O)Nc2ccc(S(=O)(=O)Nc3cc(C)nc(C)n3)cc2)c(OC)c1 | 0.3
Cc1cc(C)c(-n2c(C)cc(/C=C3/NC(=O)NC3=O)c2C)c(C)c1 | i
CCN(CC(=O)NC1CCCC1)S(=O)(=O)c1ccc(C)cc1 | 0.3

A section from further up, as a working copy:
SMILES | H5N1 antiviral
CC(=O)Nc1ccc(S(=O)(=O)Nc2c(C)n(C)n(-c3ccccc3)c2=O)cc1 | 0.3
COc1cccc(C(=O)Cn2c(N3CCCCC3)nc3c2c(=O)n(C)c(=O)n3C)c1 | i
COc1ccc(N2C(=O)CCC(C(=O)N(C)C3CCCCC3)C2c2ccc(OC)c(OC)c2)cc1 (configuration not stated) | 1.1

Following part
SMILES | H5N1 antiviral
Cc1ccc(C(=O)NC2CCS(=O)(=O)C2)cc1S(=O)(=O)N1CCCCC1 (configuration not stated) | i
CCOC(=O)C1=C(N)n2c(s/c(=C/c3ccccc3)c2=O)=C(C(=O)OCC)C1c1ccccc1 (configuration not stated) | i
CC1(C)CC(NC(=O)c2cccc3ccccc23)CC(C)(C)N1 | i
CSc1nnc(C2CCNCC2)n1C | i
O=C(/C(=C/O)N=Nc1ccc(Cl)cc1)c1ccncc1 | i
CC(=O)c1c(C(C)=O)c(C)n(-c2ccc(N)c(C)c2)c1C | 0.1
Cc1cc(Cl)ccc1OCCCC(=O)NCC1CCCO1 (configuration not stated) | 0.5
Cc1nc(NC(=O)/C=C/c2ccccc2)sc1C(=O)Nc1ccc(Cl)cc1 | i
O=C(CSc1nc2ccccc2[nH]1)NCc1ccco1 | i
CCC(=NC1CC(C)(C)NC(C)(C)C1)C1=C(O)CC(C)(C)CC1=O | 0.7
CC(C)Cc1ccc(S(=O)(=O)N2CCN(C(=O)c3ccco3)CC2)cc1 | 0.1
CCC(C)NC(=O)C1CCC(=O)N(c2ccc3c(c2)OCO3)C1c1ccc(OC)cc1 (configuration not stated) | i
CCOc1ccc(OCC(=O)NCCc2nc3ccccc3[nH]2)cc1 | 0.9
NC(=O)c1c(NC(=O)CN2CCOCC2)sc2c1CCC2 | i
CCOc1ccc(NC(=O)C23CC4CC(C2)CC(c2ccccc2)(C4)C3)cc1 | 5.2
COc1ccc(S(=O)(=O)N2CCC[C@H]2C(=O)NC2=NCCS2)cc1 | i
CN(CCNC(=O)c1cn(C)c2ccc(S(=O)(=O)N(C)C)cc2c1=O)CCc1ccccc1 | 2.1
O=C(Nc1cc(Sc2ccccn2)cc([N+](=O)[O-])c1)c1ccc([N+](=O)[O-])cc1 | 0.2
CCC(NS(=O)(=O)c1ccc(C)cc1)C(=O)O (configuration not stated) | i

Assay outcomes as filed in PubChem.
